# Screens deposited in PubChem by several laboratories.
# HNF4A DNA FP – change in binding of human HNF4 alpha to DNA | AID 1224865 | 360,000 compounds, 0.3% hits | P41235 | HNF4a-FITC DNA binding, fluorescence polarization, 1 h | activity change, % at 10 µM; in the data active = activity change above about 30%, passing the limit was not always enough;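 note: controls were the assay level and a saturating level of protein; the project sought stronger binding though the title names inhibitors; some compounds called inactive have numbers as strong as hits; positive values seem to mean higher polarization but the record does not say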
# Vif A3G – inhibitors of Vif binding to APOBEC3G peptide, primary screen, biochemical, TR-FRET, GST-Vif 1-94, biotin-A3G peptide, dose response retest (AID 1117319). TR-FRET GST-Vif / biotin-A3G peptide binding; higher % means a stronger effect; test concentration not given here; strong numbers were not always called active. one-dose inhibition, %; IC50 in µM for titrated hits. 260,000 compounds, 0.57% hits;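 active = above the screen mean plus three standard deviations and confirmed in dose response; inconclusive = results disagree or hit not tested in dose response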;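 note: Vif residues 1-94 fused to GST binding biotinylated APOBEC3G peptide 110-148; 0% = full assay without inhibitor and 100% = GST in place of GST-Vif; retest series ran down from 100 µM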
# FGF22 binding – shifts melting point of recombinant human FGF22; recombinant FGF22 thermal shift, SYPRO orange fluorescence; percent of sucrose octasulfate shift, DMSO zero; Q9HCT0; AID 651658; calls only at 9.99 µM; 340,000 compounds, 1.5% hits;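 active = melting point raised past a set limit in the mean and every replicate; inconclusive = no clear call; three in four hits are not shown here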
# Target sequence (Q9HCT0 whole entry, looked up): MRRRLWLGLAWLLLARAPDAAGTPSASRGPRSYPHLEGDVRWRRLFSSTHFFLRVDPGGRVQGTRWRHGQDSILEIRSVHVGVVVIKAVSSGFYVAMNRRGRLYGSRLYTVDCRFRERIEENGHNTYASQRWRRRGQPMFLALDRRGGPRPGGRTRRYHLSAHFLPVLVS
# Ecoli growth – E. coli growth inhibition; 330,000 compounds, 0.21% hits; Escherichia coli growth, OD600, 23 h; hits give low values; OD600 absorbance (no concentration beside the values);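 active = OD600 absorbance below the run mean of sample wells minus 3.6 SD, in any replicate, cut at about 0.56 in these data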;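 note: stock transfer was 300 nL into about 60 µL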
# ALR inh – inhibitors of human sulfhydryl oxidase ALR. 290,000 compounds, 3.8% hits. AID 485317. purified ALR, DTT oxidation, H2O2 HRP-luminol luminescence. inhibition, % (no concentration beside the values). P55789;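 active = mean and each replicate at 75% or more; inconclusive = only one of the two met; inactive = neither met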;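 note: stock transfer was 7.5 nL into about 7.5 µL; 0% = neutral wells and 100% = wells with inactivated enzyme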
# Target sequence (P55789 whole entry, looked up): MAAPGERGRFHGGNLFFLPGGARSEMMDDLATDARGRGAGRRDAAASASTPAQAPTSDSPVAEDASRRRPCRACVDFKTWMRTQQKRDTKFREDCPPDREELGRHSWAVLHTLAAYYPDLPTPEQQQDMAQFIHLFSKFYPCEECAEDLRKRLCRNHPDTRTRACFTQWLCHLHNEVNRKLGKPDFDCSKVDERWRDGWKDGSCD
# rRNA inh HTS – selective bacterial rRNA inhibition in E. coli; E. coli WT GFP vs humanized-ribosome RFP mutants, fluorescence, 24 h; hits give low values; DMSO median 0, no signal -100; GFP signal change (wild-type ribosome), % (test concentration not listed); 350,000 compounds, 1.6% hits;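 active = significant combined selectivity score with lowered wild-type GFP, culture density cut under 30%, mutant RFP and density less affected; inactive = any of these conditions unmet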; note: one replicate is shown; some compounds called inactive have numbers as strong as hits
# AF4-AF9 inh – MLL-AF4/AF9 protein interaction inhibition; inhibition, % at 10 µM; 350,000 compounds, 0.47% hits; AlphaScreen, biotin-AF4 peptide binding to FLAG-AF9; P42568;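 active = every replicate reaching a set inhibition limit, whatever the replicate mean, cut at about 25% in these data; inconclusive = mean inhibition reaches that limit but some replicates miss it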;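 note: 0% = plate neutral control median and 100% = total signal loss; the record names both 10 and 1 µM as test concentration; the first replicate is given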
# Target sequence (P42568 whole entry, looked up): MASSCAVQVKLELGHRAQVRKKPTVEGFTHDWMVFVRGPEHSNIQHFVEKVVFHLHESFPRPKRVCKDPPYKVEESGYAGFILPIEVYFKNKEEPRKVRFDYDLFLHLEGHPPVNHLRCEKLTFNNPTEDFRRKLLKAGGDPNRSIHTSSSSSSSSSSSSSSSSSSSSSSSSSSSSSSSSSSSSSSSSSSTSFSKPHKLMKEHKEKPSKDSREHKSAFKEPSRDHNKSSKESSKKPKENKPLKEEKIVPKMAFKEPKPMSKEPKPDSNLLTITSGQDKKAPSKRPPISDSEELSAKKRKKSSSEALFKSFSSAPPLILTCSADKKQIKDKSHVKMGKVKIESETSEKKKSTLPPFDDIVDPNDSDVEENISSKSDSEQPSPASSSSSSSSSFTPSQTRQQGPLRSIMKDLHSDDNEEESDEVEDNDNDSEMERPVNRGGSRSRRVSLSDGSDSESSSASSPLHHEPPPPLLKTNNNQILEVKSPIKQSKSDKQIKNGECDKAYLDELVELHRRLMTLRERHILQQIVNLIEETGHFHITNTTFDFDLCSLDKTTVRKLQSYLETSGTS
# rRNA inh HTS OD600 – second read-out of rRNA inh HTS, no call of its own (marks repeat the call); OD600 change, %; measured here: OD600 growth;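 optical density of the mix in the first replicate; 0 = DMSO median and -100 = no signal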
# rRNA inh HTS RFP – second read-out of rRNA inh HTS, no call of its own (marks repeat the call); RFP signal change, %; measured here: RFP humanized mutant strains;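 first replicate; 0 = DMSO median and -100 = no signal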
# Active calls of the source: *; i = inactive; ? = inconclusive; · = no result given; + = active, no number; & = joins results of further samples. This is a subset, so the mix of outcomes need not match the whole.
# Order of results: HNF4A DNA FP	Vif A3G	FGF22 binding	Ecoli growth	ALR inh	rRNA inh HTS	rRNA inh HTS OD600	rRNA inh HTS RFP	AF4-AF9 inh
COc1ccc(-c2csc(N(CCCN3CCOCC3)C(=O)c3ccco3)n2)cc1
  8.1	5%	·	0.64	-9	·	·	·	·
Cc1ccc[n+](CC(=O)Nc2cc(C(F)(F)F)ccc2Cl)c1
  3.1	23%	·	0.69	-6	·	·	·	·
O=C1CN(C(=O)CCCc2c[nH]c3ccccc23)c2ccccc2N1
  1.6	2%	·	0.67	4	1	-3	-0.1	·
CCOC(=O)C(=N/O)/C(C)=N/NC(=O)C(=O)Nc1ccc(Cl)cc1
  2.2	2%	i	·	0	-20*	-9.2*	-2.4*	-0.9
Cc1cc2oc(=O)cc(CN3CCCCC3)c2cc1C(C)C
  -0.6	2%	·	0.67	-6	·	·	·	·
COc1ccc(CNC(=O)C(=O)NCC2OCCN2S(=O)(=O)c2ccc3c(c2)OCCO3)cc1 (centres undefined)
  -0.7	1%	i	0.69	-19	1	10	-0.6	-7.6
COc1ccccc1-c1ccccc1[C@@H]1[C@@H](C#N)N(C(=O)C2CCOCC2)[C@H]1CO
  ·	·	i	·	·	2	2	0.6	-3.0
CC(OC(=O)c1ccc(NC(=O)CC#N)cc1)C(=O)Nc1ccc(Oc2ccccc2)cc1 (centres undefined)
  2.3	·	i	·	-3	·	·	·	-0.8
C=CCn1c(C)cc(C(=O)COc2ccc(S(=O)(=O)N3CCCC3)cc2[N+](=O)[O-])c1C
  3.2	15%	·	0.72	-1	·	·	·	·
CC(=O)Nc1ccc2nc(NC(=O)c3ccc([N+](=O)[O-])s3)sc2c1
  ·	-4%	·	0.63	-4	·	·	·	·
CC(=O)c1ccc(NC(=S)NCCCn2ccnc2)cc1
  -2.5	3%	i	0.7	-1	-1	8	-1.7	0.4
COc1ccc(C(=O)Nc2ccc(N3CCN(C(=O)c4ccccc4)CC3)cc2)cc1[N+](=O)[O-]
  -1.6	·	i	0.73	-3	-10	-8	-2.0	5.7
O=C(NCCN1CCN(c2ccccc2)CC1)c1cccn2c(=O)c3cc(Cl)ccc3nc12
  -1.2	?	·	0.68	-1	·	·	·	·
Cc1onc(-c2ccccc2)c1C(=O)Nc1ccc(C(=O)N2CCCCC2)cc1
  4.0	·	i	0.72	2	-10	-2	-0.9	-1.0
O=C1NC[C@@H](Cc2ccc(O)cc2)N(CCc2cc(C(F)(F)F)cc(C(F)(F)F)c2)C1=O
  -0.8	·	i	·	·	·	·	·	1.4
Nn1c(SCC(=O)N2CCCC2)nnc1C1CCCCC1
  -2.7	·	i	·	·	1	3	-2.6	-1.1
Cc1ccc(NC(=O)CNC(=O)c2ccco2)c(Cl)c1
  -1.4	-6%	i	0.64	9	8	9	-3.4	0.7
CCOc1ccccc1N(CC(=O)NC1CCCC1)C(=O)CNC(=O)c1cccs1
  1.8	·	i	0.66	·	3	0	2.2	0.0
CCOC(=O)/C=C/C(=O)OCC(=O)N1CCN(C(=O)c2ccco2)CC1
  -1.8	·	i	0.68	23	7	10	0.6	-2.9
COc1ccc2[nH]c(=O)c(CN(Cc3ccc(C)cc3)Cc3nnnn3CC3CCCO3)cc2c1 (centres undefined)
  -1.9	28%&7%	·	0.76	·	·	·	·	·
O=C(C[C@H]1CC[C@@H]2[C@H](COC[C@@H](O)CN2C(=O)Nc2ccc(F)cc2)O1)NCCc1ccncc1
  ·	·	i	·	·	-3	-7	0.6	-0.5
COc1ccc(NC(=O)N(C)C[C@@H]2Oc3c(cccc3N(C)C)C(=O)N([C@H](C)CO)C[C@H]2C)cc1
  ·	·	i	·	·	2	11	1.5	-0.2
Cc1ccc(NC(=O)C(C)N2CCCc3ccccc32)cc1S(=O)(=O)N1CCOCC1 (centres undefined)
  2.4	·	i	·	·	7	4	1.8	7.2
CCOC(=O)N1CCN(Cc2nc(-c3ccc(C)cc3)no2)CC1
  -1.9	4%	·	0.69	-1	·	·	·	·
CC1=C(C(=O)Nc2cccnc2)C(c2ccccn2)n2nnnc2N1 (centres undefined)
  -0.5	31%	·	0.69	5	·	·	·	·
O=C(NCCOc1ccccc1-c1ccccc1)c1ccco1
  -0.4	·	i	0.68	-4	-42	-62	-7.3	1.1
CCN(CC)S(=O)(=O)c1ccc(S(=O)(=O)N2CCN(C(=O)c3ccco3)CC2)cc1
  0.5	6%	·	0.69	-3	·	·	·	·
N#CCCNC(=O)CCN1CCCCC1
  0.0	?	·	0.76	-4	·	·	·	·
O=C(NNC(=O)c1ccccc1[N+](=O)[O-])c1cnccn1
  0.7	33%	·	0.65	-5	·	·	·	·
C/C=C/c1ccc2c(c1)O[C@@H](CN(C)C(=O)CN1CCOCC1)[C@H](C)CN([C@H](C)CO)S2(=O)=O
  ·	·	i	·	·	1	2	2.4	1.7

# New compounds follow.
# Order of results: HNF4A DNA FP	Vif A3G	FGF22 binding	Ecoli growth	ALR inh	rRNA inh HTS	rRNA inh HTS OD600	rRNA inh HTS RFP	AF4-AF9 inh
CCC(NC(=O)CCC(=O)N1CCN(S(=O)(=O)c2ccc(C)cc2)CC1)c1ccc(C)cc1 (centres undefined)
  1.9	·	i	0.65	0	-5	-5	6.3	2.8
CCOCCCNC(=O)CN1C(=O)C(CC)Oc2ccccc21 (centres undefined)
  0.7	1%	·	0.63	3	·	·	·	·
CCOc1ccc(CCNC(=O)c2cnccn2)cc1OCC
  5.6	-3%	i	0.65	·	5	-3	-3.5	-0.2
CCN(CC)S(=O)(=O)c1ccc(C(=O)Nc2cc3oc4ccccc4c3cc2OC)cc1
  -1.8	-4%	·	0.74	-3	·	·	·	·
C[C@@H]1CN([C@@H](C)CO)C(=O)c2cc(NC(=O)c3ccncc3)ccc2O[C@H]1CN(C)S(=O)(=O)c1ccccc1
  ·	·	i	·	·	1	-2	-1.1	-0.8
O=C(OCn1nnc2ccccc2c1=O)c1ccc(O)cc1
  0.4	30%	i	0.69	-4	-19	-27	-2.1	-1.3
Cc1ncc(CSc2ccc(Cl)cc2)c(CO)c1O
  -0.9	-3%	i	0.65	60	7	3	-1.9	-0.9
CCOc1ccccc1Nc1nnc(SCC(=O)NC2CCS(=O)(=O)C2)s1 (centres undefined)
  -3.6	·	i	0.69	1	6	4	-0.7	-17
OC[C@H]1[C@@H](c2ccc(C#Cc3cccnc3)cc2)[C@H]2CN(Cc3ccccc3F)CCCCN21
  ·	·	i	·	·	-17	-52	25	2.8
O=C(Nc1cccc(Cl)c1)NC1CC2CCC(C1)N2Cc1ccco1 (centres undefined)
  -2.0	21%	i	0.66	-8	25	21	1.7	0.8
CCc1ccc(S(=O)(=O)Nc2ccc(-c3nc4cccnc4s3)cc2)s1
  3.6	-2%	i	0.75	-18	-6	8	-2.0	?
COc1ccc(C(=O)OC(C)C(=O)NC(C)CCc2ccccc2)c(OC)c1 (centres undefined)
  -0.2	·	i	0.7	-15	-12	-14	-1.1	-2.5
O=C(NCC(O)COc1ccc([N+](=O)[O-])cc1)Nc1ccccc1 (centres undefined)
  3.3	22%	i	0.65	-5	-1	8	-0.4	2.6
C[C@H](CO)N1C[C@H](C)[C@@H](CN(C)Cc2ccc(Cl)c(Cl)c2)Oc2c(NC(=O)C3CCCCC3)cccc2C1=O
  ·	·	i	·	·	0	-2	2.0	-0.4
CC1=C(C(=O)OCc2ccccc2)C(c2ccc(N3CCOCC3)cc2)NC(=O)N1 (centres undefined)
  1.1	2%	·	0.72	3	·	·	·	·
CCC1C(=O)CC(c2ccc([N+](=O)[O-])cc2)NC1c1ccc([N+](=O)[O-])cc1 (centres undefined)
  -2.4	11%	i	0.73	-35	2	0	-4.4	11
COc1ccc(OC)c(NC(=O)NNC(=O)CCCOc2ccc(Cl)cc2C)c1
  4.2	20%	+	0.62	-5	-58	-74	-19	0.8
COc1ccc(NC(=O)Nc2cccc3c2O[C@@H](CN(C)C)[C@@H](C)CN([C@@H](C)CO)C3=O)cc1
  ·	·	i	·	·	2	9	1.7	-0.4
CCCCn1c(N)c(N(CCC(C)C)C(=O)c2cc(CC)c(C)s2)c(=O)[nH]c1=O
  -3.7	0%	i	0.71	-2	1	15	-2.0	2.3
Cc1cnc(C(=O)Nc2nnc(SCc3c(Cl)cccc3Cl)s2)cn1
  -2.0	-12%	·	0.7	-9	·	·	·	·
C[C@@H]1CN([C@@H](C)CO)C(=O)c2cc(Br)cnc2O[C@H]1CN(C)Cc1ccccc1
  ·	·	i	·	·	2	3	-0.2	0.3
c1cc2c(cc1Cn1cnnn1)OCO2
  4.7	25%	·	0.73	-1	·	·	·	·
CC(=O)Nc1ccc(S(=O)(=O)Nc2cccc(NC(=O)C(C)(C)C)c2)cc1
  0.9	3%	·	0.69	-3	·	·	·	·
Cc1c(Cc2ccc3c(c2)OCO3)sc(NC(=O)c2ccccc2)c1C(N)=O
  12	-2%	i	0.75	27	-4	1	0.3	-5.5
COc1cccc(OC)c1C(=O)Nc1ccc2c(c1)OCCO2
  4.0	-1%	·	0.66	-10	·	·	·	·
O=C(CCCOc1ccc(Cl)cc1Cl)Nc1ncccn1
  1.0	8%	i	0.67	3	-9	5	-0.4	-5.6
O=C(CN1C(=O)NC2(CCCC2)C1=O)OCCOc1ccccc1
  3.3	-8%	i	0.71	-4	9	9	0.3	-0.9
O=C(CCc1cccc(Cl)c1)N1CCCC(Nc2ccccc2)C1 (centres undefined)
  0.1	·	i	·	47	-22	-43	-9.4	-4.9
Cc1noc(C)c1NC(=O)Nc1ccc2c(c1)C(=O)N([C@H](C)CO)C[C@H](C)[C@H](CN(C)S(=O)(=O)c1cn(C)cn1)O2
  ·	·	i	·	·	1	7	-0.4	-1.8
COCCNC(=O)c1ccc(N2CC3CC(C2)c2cccc(=O)n2C3)c(NC(=O)c2ccc(C(C)(C)C)cc2)c1 (centres undefined)
  1.6	-2%	i	·	·	-5	-3	-2.9	0.8

# (list continues)
# Order of results: HNF4A DNA FP	Vif A3G	FGF22 binding	Ecoli growth	ALR inh	rRNA inh HTS	rRNA inh HTS OD600	rRNA inh HTS RFP	AF4-AF9 inh
Cc1cc(NC(=O)c2cc3ccccc3o2)no1
  0.9	·	i	·	·	-2	6	7.1	-0.6
CC(C)(C)c1ccc(S(=O)(=O)N2CCN(c3ncccn3)CC2)cc1
  -18	1%	i	0.7	-3	11	8	1.4	1.1
COc1ccc(N2C(=O)CNC2=S)cc1
  -2.4	·	i	0.66	40	-3	7	3.2	-0.9
Cc1ccc(S(=O)(=O)N(C)C[C@@H]2OCCCC[C@@H](C)Oc3ccc(NS(=O)(=O)c4ccc(F)cc4)cc3C(=O)N([C@@H](C)CO)C[C@H]2C)cc1
  ·	·	i	·	·	-3	-4	-0.9	-0.5
Cc1ccc(S(=O)(=O)N(C)C[C@@H]2Oc3c(NC(=O)Nc4ccc5c(c4)OCO5)cccc3C(=O)N([C@H](C)CO)C[C@H]2C)cc1
  ·	·	i	·	·	-1	9	-0.8	-2.3
O=C(c1ccccc1F)N1CC[C@@H]2[C@@H](CO)Nc3ccc(Br)cc3[C@@H]21
  ·	·	i	·	·	-11	-7	2.0	-1.0
O=C1NC(Cc2ccc(O)cc2)c2nc3cc(F)c(F)cc3c(=O)n2-c2ncccc21 (centres undefined)
  3.9	1%	i	·	·	-1	6	-2.6	-0.6
O=S(=O)(c1ccc(Cl)cc1)n1nnc2ccccc21
  -0.6	-9%	·	0.71	·	·	·	·	·
CC(C)C[C@H]1COCCS(=O)(=O)N1Cc1cccc(Cl)c1
  3.3	·	i	·	-1	-24	-47	-12	·
